Screening data deposited in PubChem by Broad Institute.
AF4-AF9 inh: MLL-AF4/AF9 protein interaction inhibition; AlphaScreen, biotin-AF4 peptide binding to FLAG-AF9; 350,000 compounds, 0.47% hits; inhibition, % at 10 µM; P42568;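 active = every replicate reaching a set inhibition limit, whatever the replicate mean, cut at about 25% in these data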;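 note: 0% = plate neutral control median and 100% = total signal loss; the record names both 10 and 1 µM as test concentration; the first replicate is given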
Target sequence (P42568 whole entry, looked up): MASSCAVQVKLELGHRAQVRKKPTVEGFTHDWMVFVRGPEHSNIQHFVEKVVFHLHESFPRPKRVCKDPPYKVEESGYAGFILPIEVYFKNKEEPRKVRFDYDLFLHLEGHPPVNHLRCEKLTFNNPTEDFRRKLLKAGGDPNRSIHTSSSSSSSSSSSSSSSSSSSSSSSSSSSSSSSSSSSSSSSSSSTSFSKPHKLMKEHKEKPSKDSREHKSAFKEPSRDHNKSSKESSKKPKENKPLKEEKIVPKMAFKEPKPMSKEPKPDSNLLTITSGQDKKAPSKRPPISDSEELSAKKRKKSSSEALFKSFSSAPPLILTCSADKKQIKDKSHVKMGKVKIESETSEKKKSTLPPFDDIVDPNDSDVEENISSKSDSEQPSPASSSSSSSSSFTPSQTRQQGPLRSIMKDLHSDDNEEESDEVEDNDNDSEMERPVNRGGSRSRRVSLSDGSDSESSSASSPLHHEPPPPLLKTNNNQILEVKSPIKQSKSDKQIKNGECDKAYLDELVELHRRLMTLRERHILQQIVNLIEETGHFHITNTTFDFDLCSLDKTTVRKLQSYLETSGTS
FGF22 binding: shifts melting point of recombinant human FGF22 | Q9HCT0 | recombinant FGF22 thermal shift, SYPRO orange fluorescence; percent of sucrose octasulfate shift, DMSO zero | calls only at 9.99 µM | 340,000 compounds, 1.5% hits;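 active = melting point raised past a set limit in the mean and every replicate; three in four hits are not shown here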
Target sequence (Q9HCT0 whole entry, looked up): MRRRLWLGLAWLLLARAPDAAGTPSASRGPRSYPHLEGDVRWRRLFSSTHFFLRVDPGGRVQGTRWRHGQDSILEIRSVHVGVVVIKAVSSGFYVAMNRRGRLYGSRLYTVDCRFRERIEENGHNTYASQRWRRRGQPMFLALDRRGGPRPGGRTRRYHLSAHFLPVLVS
Ecoli rRNA inh: selective bacterial rRNA inhibition in E. coli; E. coli WT GFP vs humanized-ribosome RFP mutants, fluorescence, 24 h; hits give low values; DMSO median 0, no signal -100; GFP signal change (wild-type ribosome), % (concentration not given with the values); 350,000 compounds, 1.6% hits;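 active = significant combined selectivity score with lowered wild-type GFP, culture density cut under 30%, mutant RFP and density less affected; inactive = any of these conditions unmet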; note: one replicate is shown; some compounds called inactive have numbers as strong as hits
Ecoli rRNA inh OD600: second read-out of Ecoli rRNA inh, no call of its own (marks repeat the call); OD600 change, %; measured here: OD600 growth;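 optical density of the mix in the first replicate; 0 = DMSO median and -100 = no signal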
Ecoli rRNA inh RFP: further read-out of Ecoli rRNA inh, marked with its call; RFP signal change, %; measured here: RFP humanized mutant strains;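 first replicate; 0 = DMSO median and -100 = no signal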
Numbers without * were called inactive; i = inactive; & = joins results of further samples. Some of the compounds tested, so the mix of outcomes need not match the whole.

Values run as follows: AF4-AF9 inh	FGF22 binding	Ecoli rRNA inh	Ecoli rRNA inh OD600	Ecoli rRNA inh RFP
1	C[C@H](CO)N1C[C@H](C)[C@H](CN(C)CC2CCCCC2)Oc2ccc(NS(=O)(=O)c3cccs3)cc2C1=O
    -2.9	i	1.3	2.5	-1.7
2	CC(=O)c1cccc2c1OC(C)C(=O)N2Cc1ccc(Cl)cc1 (configuration not stated)
    -3.8	i	-4.0	-3.4	-0.6
3	Cc1noc(C)c1NC(=O)Nc1ccc2c(c1)CC(=O)N([C@@H](C)CO)C[C@H](C)[C@H](CN(C)C(=O)Nc1c(C)noc1C)O2
    -0.5	i	3.9	13.9	-1.0
4	CO[C@H]1CN(C)C(=O)c2ccc(NC(=O)NC(C)C)cc2OC[C@@H](C)N(Cc2ccccc2)C[C@@H]1C
    3.9	i	-2.2	-10.1	2.9
5	O=C(OCc1nnc(-c2cccs2)o1)c1cccnc1Cl
    -1.1	i	1.4	3.8	-3.0
6	CCc1nc2c(OCCOc3ccccc3)cccn2c1N(C)C(=O)c1ccc(OC)cc1
    4.8	i	-2.0	-3.7	0.9
7	O=C(Nc1ccc(Cl)cc1)N1C[C@H]2[C@@H](c3ccccc31)[C@H](CO)N2C(=O)c1cccnc1
    -0.3	i	-29.8	-47.3	10.0
8	Cn1c(=O)c2c(-c3ccccc3)n(-c3ccccc3)cc2n(C)c1=O
    3.0	i	-0.4	4.9	-2.4
9	Cc1ccc(-c2ccc3c(c2)O[C@H](CN(C)S(C)(=O)=O)[C@H](C)CN([C@@H](C)CO)S3(=O)=O)cc1
    -0.1	i	-3.5	-17.5	6.2
10	COc1ccc2c3c(n(C)c2c1)[C@H](CO)NCC31CCN(CC2CCCC2)CC1
    14.0	i	3.3	2.2	-1.1

Among those listed so far, these have two or more sulfur atoms:
Values run as follows: AF4-AF9 inh	FGF22 binding	Ecoli rRNA inh	Ecoli rRNA inh OD600	Ecoli rRNA inh RFP
1	C[C@H](CO)N1C[C@H](C)[C@H](CN(C)CC2CCCCC2)Oc2ccc(NS(=O)(=O)c3cccs3)cc2C1=O
    -2.9	i	1.3	2.5	-1.7
9	Cc1ccc(-c2ccc3c(c2)O[C@H](CN(C)S(C)(=O)=O)[C@H](C)CN([C@@H](C)CO)S3(=O)=O)cc1
    -0.1	i	-3.5	-17.5	6.2

New compounds follow.
Values run as follows: AF4-AF9 inh	FGF22 binding	Ecoli rRNA inh	Ecoli rRNA inh OD600	Ecoli rRNA inh RFP
11	C[C@@H](O)C#Cc1cnc2c(c1)C(=O)N([C@@H](C)CO)C[C@H](C)[C@H](CN(C)C(=O)Nc1ccc(F)cc1)O2
    -3.6	i	3.0	14.3	-0.6
12	CC(C)NC(=O)N1C[C@H]2[C@@H](c3ccccc31)[C@H](CO)N2C(=O)c1ccncc1
    -1.0	i	4.0	6.7	0.9
13	C[C@H](CO)N1C[C@H](C)[C@H](CN(C)CC2CC2)Oc2cc(-c3cccnc3)ccc2S1(=O)=O
    -1.3	i	4.7	-5.4	-2.8
14	C[C@H](CO)N1C[C@H](C)[C@@H](CN(C)Cc2ccc(C(=O)O)cc2)OCCCC[C@H](C)Oc2ccc(NS(=O)(=O)c3ccc(F)cc3)cc2C1=O
    -7.7	i	1.3	4.1	0.3
15	Cc1ccc(OCC(=O)N(C)CC(=O)NCc2ccco2)c(Br)c1
    -0.4	i	7.2	16.9	-0.1
16	Cc1noc(C)c1S(=O)(=O)N(C)C[C@@H]1Oc2ccc(NC(=O)CCCN(C)C)cc2C(=O)N([C@H](C)CO)C[C@@H]1C
    -1.9	i	-1.7	13.2	-1.6
17	COC(=O)c1cc(S(=O)(=O)NCC2CCN(C(=O)C(=O)c3cccs3)CC2)cs1
    -2.0	i	-1.9	2.0	1.6
18	Cc1ccc(S(=O)(=O)/N=C2\C=C(NS(=O)(=O)c3ccccc3)C(=O)c3ccccc32)c(C)c1
    0.2	i	-25.1	-43.1	2.0
19	C[C@@H]1CN([C@@H](C)CO)C(=O)Cc2cc(NC(=O)Nc3cccc4ccccc34)ccc2O[C@H]1CN(C)C
    3.2	i	1.7	4.1	2.2
20	CO[C@H]1CN(C)C(=O)c2ccc(NS(=O)(=O)c3ccccc3)cc2OC[C@H](C)N(Cc2cccnc2)C[C@@H]1C
    0.1	i	-0.6	-0.7	2.2
21	C[C@H](CO)N1C[C@H](C)[C@@H](CN(C)S(=O)(=O)c2ccc(Cl)cc2)OCc2cnnn2CCCC1=O
    -2.0&-1.4	i	0.1&-2.3	0.5&-0.5	0.7&-2.5
22	Cc1ccc(S(=O)(=O)Nc2ccc3c(c2)C(=O)N([C@H](C)CO)C[C@H](C)[C@H](CN(C)C(=O)Nc2ccccc2)OCCCC[C@H](C)O3)cc1
    1.0	i	-0.4	-5.0	-0.5
23	O=C(C[C@@H]1CC[C@@H]2[C@H](COC[C@H](O)CN2C(=O)Nc2ccc(F)cc2)O1)NCCc1ccncc1
    1.4	i	2.6	5.0	-2.9
24	CCCC#Cc1ccc([C@H]2[C@@H](CO)N(C(=O)C3CCCCC3)[C@H]2C#N)cc1
    0.8	i	-18.7	-41.7	5.5
25	O=C(C[C@@H]1CC[C@@H]2[C@H](COC[C@@H](O)CN2C(=O)c2ccccc2F)O1)N1CCOCC1
    -2.5	i	2.8	9.3	9.5
26	C[C@@H]1CN([C@@H](C)CO)C(=O)c2cc(NC(=O)Nc3ccc(F)cc3)ccc2O[C@@H](C)CCCCO[C@H]1CN(C)C(=O)Cc1ccccc1
    -0.8	i	-1.6	-8.7	3.4
27	CC(C)=CCC/C(C)=C/CNC(=O)C[C@H]1C[C@H](C(=O)N2CCOCC2)[C@@]2(CCC3CCCC3)c3[nH]c4cc(CCC(=O)N(C)C)ccc4c3CCN2C1=O
    1.6	i	3.9	13.3	6.0
28	CN(C)C(=O)C[C@H]1CC[C@H]2[C@@H](COC[C@@H](O)CN2S(=O)(=O)c2ccccc2Cl)O1
    -2.5	i	-1.5	-4.6	0.2
29	COc1ccc(CN(C)C[C@H]2Oc3c(NS(=O)(=O)c4ccc(OC)cc4)cccc3C(=O)N([C@@H](C)CO)C[C@H]2C)cc1
    2.2	i	-2.3	8.0	0.1
30	C[C@H](CO)N1C[C@H](C)[C@@H](CN(C)Cc2ccc(C(=O)O)cc2)Oc2ccc(NC(=O)Nc3cccc4ccccc34)cc2C1=O
    -0.8	i	0.5	-0.5	-4.3
31	COCC(=O)Nc1ccc2c(c1)[C@H]1C[C@@H](CC(=O)NCc3ccc(OC)cc3)O[C@@H](CO)[C@H]1O2
    -0.5	i	1.8	5.4	-2.6
32	CN(C)CC(=O)Nc1ccc2c(c1)[C@H]1C[C@H](CC(=O)NCc3ccc(-c4ccccc4)cc3)O[C@@H](CO)[C@H]1O2
    6.8	i	0.8	15.2	7.4
33	C[C@@H]1CN([C@H](C)CO)C(=O)c2cc(NS(=O)(=O)c3ccc(Cl)cc3)ccc2O[C@@H]1CN(C)C
    -8.6	i	4.1	8.1	0.2
34	O=C(C[C@@H]1C=C[C@H](NC(=O)c2cccc(F)c2)[C@H](CO)O1)NCc1ccc(Oc2ccccc2)cc1
    -5.6	i	1.3	-24.9	5.3
35	Cc1ccc(S(=O)(=O)N(C)C[C@@H]2Oc3ccc(NC(=O)CCCN(C)C)cc3CC(=O)N([C@H](C)CO)C[C@H]2C)cc1
    1.4	i	-0.2	-1.2	-0.6
36	C[C@@H]1CN([C@@H](C)CO)C(=O)Cc2cc(NC(=O)NC3CCCCC3)ccc2O[C@@H]1CN(C)C
    -2.3	i	2.3	10.5	-0.5
37	CNC[C@@H]1OCCCC[C@@H](C)Oc2ccc(NC(=O)c3ccccc3)cc2C(=O)N([C@H](C)CO)C[C@@H]1C
    -3.9	i	-0.6	7.2	-0.1
38	CN(C)C(=O)C[C@@H]1CC[C@@H]2[C@@H](COc3ccc(NC(=O)C4CCCCC4)cc3C(=O)N2C)O1
    -2.1	i	1.1	-0.7	-1.1
39	COCC#Cc1ccc([C@H]2[C@H]3CN(C(=O)C4CCCCC4)CC(=O)N3[C@H]2CO)cc1
    0.2	i	2.3	2.4	-2.3
40	CC(=O)c1cc2cccc(OC3(C)CCN(Cc4ccc(-c5ccccn5)cc4)C3)c2o1 (configuration not stated)
    3.5	i	-8.9	-8.7	9.7
41	Nc1ccccc1N=c1ssnc1Cl
    1.5	i	-2.6	-9.3	0.4
42	COc1cccc(S(=O)(=O)N2CC[C@@H]3[C@@H](CO)Nc4ccc(-c5ccccc5OC)cc4[C@@H]32)c1
    4.4	i	-0.8	0.6	-0.4
43	O=C(C[C@H]1CC[C@@H](NC(=O)C2CC2)[C@@H](CO)O1)NCc1ccncc1
    -0.3	i	0.9	-4.4	-5.3
44	CCCC(=O)Nc1ccc2c(c1)C(=O)N(C)C[C@@H](OC)[C@H](C)CN(CCc1ccccc1)[C@@H](C)CO2
    0.5	i	-3.1	-6.1	1.8
45	CCC(=O)N[C@H]1CC[C@@H](CC(=O)NCc2ccc(OC)cc2)O[C@@H]1CO
    -2.8	i	3.5	5.5	-1.3
46	CC(C)=CCC/C(C)=C/COc1c2occc2cc2ccc(=O)oc12
    1.0	i	-7.2	-3.2	-10.0
47	COc1cccc(C#Cc2ccc([C@@H]3[C@@H](C#N)N(C(=O)C4CCOCC4)[C@H]3CO)cc2)c1
    -0.6	i	-3.0	-5.3	2.9
48	CCS(=O)(=O)N(C)C[C@@H]1OCc2ccccc2-c2c(n(C)c3ccccc23)C(=O)N([C@@H](C)CO)C[C@@H]1C
    -0.3	i	-2.5	-0.4	-3.8
49	Cc1nn(C)cc1NC(=O)C[C@@H]1CC[C@H]2[C@@H](COc3ccc(NC(=O)c4cccc(F)c4)cc3C(=O)N2C)O1
    -1.9	i	-2.1	3.4	-0.3
50	CO[C@H]1CC[C@H]2CCN(C)C(=O)[C@H](C)[C@H](OC)CN(C)C(=O)c3cc(C#N)ccc3OC[C@H]1O2
    -4.7	i	1.8	4.6	-1.5
51	CCC(=O)N1CCC2(CC1)CN(C(=O)CN1CCOCC1)[C@@H](CO)c1[nH]c3cc(OC)ccc3c12
    1.5	i	4.5	3.7	-3.6
52	CN(Cc1ccccc1)C(=O)c1ccc(NC(=O)Cc2ccc(NC(=O)C3CCCN(C(=O)C4CCCC4)C3)cc2)cc1 (configuration not stated)
    -2.8	i	-2.8	-0.6	0.2
53	O=C(C[C@@H]1CC[C@@H](NC(=O)c2ccccn2)[C@H](CO)O1)NCc1cc(F)cc(F)c1
    -0.8	i	-0.1	1.1	-0.8
54	Cc1noc(C)c1NC(=O)Nc1ccc2c(c1)C(=O)N([C@@H](C)CO)C[C@@H](C)[C@@H](CN(C)Cc1ccc(C(F)(F)F)cc1)O2
    2.7	i	-1.0	-3.1	-0.2
55	O=C(Nc1cccc(Cl)c1)N[C@@H]1CC[C@@H](CCn2cc(Cc3ccccc3)nn2)O[C@H]1CO
    0.0	i	-22.6	-43.0	0.5
56	CCC(=O)N1[C@H](CN(CC)C(=O)c2ccc(F)cc2)[C@@H](c2ccccc2)[C@@H]1CO
    -1.6	i	-0.7	1.5	-4.4
57	C[C@H]1CN([C@@H](C)CO)C(=O)c2cccc(NC(=O)Nc3ccccc3)c2O[C@@H]1CN(C)S(C)(=O)=O
    -3.1	i	4.0	7.2	-4.5
58	COc1ccc(CN(C)C[C@@H]2Oc3ccc(NC(=O)CCCCCC(=O)Nc4ccccc4N)cc3CC(=O)N([C@H](C)CO)C[C@@H]2C)cc1
    0.1	i	-1.9	-1.2	0.4
59	Cc1noc(-c2ccccc2)c1NC(=O)Nc1ccc2nc([C@H]3C[C@H](O)[C@@H](CO)O3)[nH]c2c1
    1.2	i	8.3	7.6	3.3
60	C[C@@H]1CN([C@H](C)CO)S(=O)(=O)c2ccc(-c3ccccc3F)cc2O[C@H]1CN(C)Cc1cncnc1
    9.6	i	-7.7	-27.6	-3.5

Additional records:
Values run as follows: AF4-AF9 inh	FGF22 binding	Ecoli rRNA inh	Ecoli rRNA inh OD600	Ecoli rRNA inh RFP
61	COc1ccc(C(=O)N2C[C@@H]3[C@H](c4ccccc42)[C@H](CO)N3C(=O)Cc2ccccn2)cc1
    -16.1	i	6.8	9.9	1.4
62	C[C@@H]1CCCCO[C@@H](CN(C)C(=O)C2CCCCC2)[C@H](C)CN([C@H](C)CO)C(=O)c2cc(NS(=O)(=O)c3cn(C)cn3)ccc2O1
    -0.9	i	-1.3	-1.7	2.6
63	C[C@H](CO)N1C[C@H](C)[C@H](CN(C)C(=O)C2CCCCC2)OCCCC[C@H](C)Oc2ccc(NC(=O)Nc3ccccc3)cc2C1=O
    -0.9	i	-3.6	-4.4	1.2
64	COC(=O)C[C@H]1C=C[C@@H](NC(=O)Nc2ccc(C(F)(F)F)cc2)[C@H](CO)O1
    0.5	i	-13.0	-15.4	5.0
